# Menin-MLL FL inh: menin-MLL binding inhibition, fluorescein peptide. Fluorescence polarization, fluorescein-MLL peptide displacement from menin. FP activity change, % at 61.4 µM. 290,000 tested, under 10 active. AID 1766; inconclusive = falling polarisation curve, or a change in total fluorescence; inactive = total fluorescence flat and polarisation flat or rising; no compound was filed as active; the % refers to the polarisation; negative = inhibition;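 also: % of control where 0% means no effect; inhibitors lower the polarisation; unlabelled MLL peptide was the positive control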
# TRPML1 ag: human mucolipin-1 channel agonism; Q9GZU1; TRPML1-expressing cells, Ca2+ dye fluorescence, FDSS; host cell line not named in the record; reference of the full effect not given here; activation, % (concentration not given with the values); actives 0.12% (n = 410,000); AID 624414; in the data active = activation above about 50%; inconclusive = about 30% to 50%; inactive = below about 30%; also: 0% is about no effect; the text of the record puts the active cut at 80%
# Target sequence (Q9GZU1 whole entry, looked up): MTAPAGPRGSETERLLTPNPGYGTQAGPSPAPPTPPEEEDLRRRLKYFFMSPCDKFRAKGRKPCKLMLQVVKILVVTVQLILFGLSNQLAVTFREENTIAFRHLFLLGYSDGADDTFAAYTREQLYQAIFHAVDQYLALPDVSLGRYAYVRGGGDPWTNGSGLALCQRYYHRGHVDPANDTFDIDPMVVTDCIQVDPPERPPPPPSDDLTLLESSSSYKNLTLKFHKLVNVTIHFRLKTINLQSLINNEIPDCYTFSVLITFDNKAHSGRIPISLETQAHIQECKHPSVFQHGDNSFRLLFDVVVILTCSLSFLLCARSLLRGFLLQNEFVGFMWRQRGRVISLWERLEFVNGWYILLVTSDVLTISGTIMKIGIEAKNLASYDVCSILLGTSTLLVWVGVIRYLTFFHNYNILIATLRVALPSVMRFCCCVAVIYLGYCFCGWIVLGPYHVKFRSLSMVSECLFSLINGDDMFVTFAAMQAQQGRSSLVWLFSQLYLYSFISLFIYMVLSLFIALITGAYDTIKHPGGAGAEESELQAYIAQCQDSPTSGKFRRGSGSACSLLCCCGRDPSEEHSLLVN
#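 Tet-induced TRPML1-DL cells, 1,500 per well, cultured overnight, were loaded with a no-wash Ca2+ dye for 45–90 min. Calcium fluorescence was recorded on the FDSS for 110 s after compound addition, before the EC80 agonist (4 uM 54-4) was added.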
# TRPV1 potentiator: human TRPV1 potentiation; Q8NER1; actives 0.02% (n = 320,000); TRPV1-expressing cells, Fluo-8 calcium influx, capsaicin EC20 potentiation; host cell line not named in the record; control for the full effect not named in the record; potentiation, % at 8.33 µM; active means potentiation above 80%; inconclusive means 30% to 80%; inactive means below 30%; also: 0% is about no effect
#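 Cells expressing TRPV1 were dye-loaded with Fluo-8 and read kinetically: 10 s baseline, 3 min after compound (agonist portion), then 2 min after EC20 capsaicin (allosteric enhancer portion). Calcium-bound dye fluorescence at 480/520 nm.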
# PINK1 modulator: changes PINK1 expression; PINK1 immunofluorescence, high-content cytometry, 24 h; actives 0.2% (n = 410,000); Potency, µM (highest dose often 76.6 µM), without a hit: at the highest dose activation (PINK1 increase), most hits filed as activators; AID 624263; active = well fitted activation curve with a large enough effect; inconclusive = small, poorly fitted or top-dose-only effect; inactive = flat fitted curve, though single readings scatter; cell line not stated here;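 also: potency is read from the fitted curve at half-maximal effect; % of control where 0% means no effect; nearly all actives have a fitted effect of over 65% in size; a mitochondrial uncoupler was the plate control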
#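 Measures PINK1 amount and localization on or inside mitochondria by immunofluorescence. Stable cells get compounds at 5 concentrations for 24 hours before fixation and staining; CCCP controls included.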
# ClpP mod: qHTS Assay for Activators of ClpP | ATP-dependent Clp protease proteolytic subunit (Bacillus subtilis (strain 168)), P80244 | purified B. subtilis ClpP, FRET peptide cleavage, 20 min | Potency, µM (top dose mostly 57.5 µM), inactives show at the highest dose activity change, negative = active | actives 1.9% (n = 340,000); active = well fitted falling curve with a large enough effect; inconclusive = small, poorly fitted or top-dose-only effect; inactive = no such curve, though single readings can be large or run the other way; also: potency is read from the fitted curve at half-maximal effect; the source files actives as falling curves though it sought activators and does not explain the sign; nearly all actives have a fitted effect of over 65% in size; many hits overshoot -100%
# Target sequence (P80244 whole entry, looked up): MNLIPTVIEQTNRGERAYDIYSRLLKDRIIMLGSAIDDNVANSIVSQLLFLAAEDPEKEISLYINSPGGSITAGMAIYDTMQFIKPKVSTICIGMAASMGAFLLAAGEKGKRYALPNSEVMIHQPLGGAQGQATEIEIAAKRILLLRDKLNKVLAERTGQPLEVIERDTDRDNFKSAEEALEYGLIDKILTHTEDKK
#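 ClpP 10 microg/mL final, pH 8 Tris/KCl buffer with BSA, glycerol, Tween-20; compound pinned in; FRET-FV substrate; RT 20 min; Ex320/Em430; ΔFRET vs ADEP 5.8 microM, DMSO, no enzyme.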
# Sfp PPTase inh: inhibitors of Bacillus subtilis Sfp phosphopantetheinyl transferase. Biochemical Sfp PPTase activity, qHTS. Potency, µM, without a hit: max response, negative = inhibition, most hits filed as inhibitors. actives 3.5% (n = 310,000). AID 1490. Q9F4F7; active = well fitted inhibition curve with a large enough effect; inconclusive = small, poorly fitted or top-dose-only effect, or another doubt; inactive = no such curve, though single readings can be large or run the other way;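 also: the enzyme is Sfp with the accession as filed and its product quenches rhodamine fluorescence; potency is read from the fitted curve at half-maximal effect; 0% = enzyme reaction without inhibitor and -100% = no enzyme wells; top concentration of the series not given in the record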
#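 After 15 min at room temperature with compound, 15 nM Sfp received 5 uM rhodamine-CoA plus 12.5 uM BHQ-2-ybbR (50 mM Hepes pH 7.6, 10 mM MgCl2). Rate came from the fluorescence difference over 30 min, ex 525/em 598 nm.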
# TRPML1 inh: blocks the human TRPML1 channel; TRPML1-inducible cells, Ca2+ dye fluorescence, FDSS; hits give low values; inhibition of EC80 agonist-evoked calcium signal; AID 624415; actives 0.02% (n = 390,000); activity change, negative = inhibition, % (test concentration not listed); in the data active means activity change below about -50%; inconclusive means about -30% to -50%; inactive means above about -30%;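 also: stimulus is agonist 54-4 at its EC80 concentration; % is scaled to controls: 0 for no effect and ±100 for the full control effect; compound concentration not given in the record; the text of the record puts the active cut at -80%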
#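 Tet-induced TRPML1-DL cells loaded with Ca8 no-wash calcium dye were read kinetically on FDSS. Compound addition was followed by EC80 agonist 54-4 (4 uM final); inhibition was read over 110 s.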
# * = called active by the depositor; ? = inconclusive; nt = not tested or not shown; [ ] = remark or other dose.
SMILES,Menin-MLL FL inh,TRPML1 ag,TRPV1 potentiator,PINK1 modulator,ClpP mod,Sfp PPTase inh,TRPML1 inh
O=C(CN(c1ccccc1)S(=O)(=O)c1ccccc1)Nc1ccccc1C(=O)NCc1ccco1,0.3,2.2,4,-1.2%,?,13%,2
COc1ccc(C2(O)CCN(C(=O)Cc3cccnc3)CC2)cc1,9.9,2.7,-1,-0.3%,-7.6%,16%,-1
Cc1ccc(C(=O)OCC(=O)N(CC(C)C)c2c(N)n(Cc3ccccc3)c(=O)[nH]c2=O)o1,nt,-0.6,2,-1.7%,-19%,nt,5
O=C(O)c1cc(Cl)c2c(c1)OCO2,1.3,-0.5,4,1.4%,-0.9%,9%,5
COc1ccc(CCNC(=O)CN2C(=O)NC(C)(c3ccc([N+](=O)[O-])cc3)C2=O)cc1 (configuration not stated),6.4,1.8,-5,-2.1%,nt,17%,3
CC1CCCCN1CC(=O)NC(=O)NCc1ccccc1 (configuration not stated),8.3,0.2,1,2.4%,-0.2%,1%,16
CN1CCN(NC(=O)/C=C/c2ccc(C(C)(C)C)cc2)CC1,-0.9,0.7,?,-1.1%,0.5%,12%,11
Nc1ccccc1C(=O)NCCN1CCNC1=O,2.2,-0.4,-6,2.7%,4.2%,24%,-6
CC(=O)c1c(C)nn(CC(O)Cn2c3c(c4cc(C)ccc42)CCCC3=O)c1C (configuration not stated),0.8,2.6,-14,-0.9%,?,-9%,12
COc1ccccc1NC(=O)N1CCN(c2cccc(C(F)(F)F)c2)CC1,6.6,-0.6,17,-6.4%[38.3 µM],-5.7%,-2%,-2
O=C(C[C@H]1C/C=C\CCCCC(=O)OC[C@H]2CCCN2C1=O)N[C@H](CO)Cc1ccccc1,nt,-0.7,nt,-0.9%,0.4%,nt,-19
O=C(CCn1c(=O)[nH]c2ccccc2c1=O)Nc1ccccc1,-1.3,-0.4,20,2.3%,-12%,6%,-3
O=C(NCCN1CCOCC1)/C(=C\c1ccccc1Cl)NC(=O)c1ccccc1,nt,0.2,-16,0.4%,nt,0%,-8
COc1ccc(CCNC(=O)C(=O)NCc2ccc(C(C)C)cc2)cc1OC,4.7,1.2,-6,7.3%,2.3%,17%,11
Cc1nc(SCC(=O)N2CCCc3ccccc32)c2oc3ccccc3c2n1,1.4,1.9,-1,0.8%[38.3 µM],-14%,-17%,37
Cc1cc(C)c2c(N=NN3CCCCC3)[nH]nc2n1,4.8,2.6,-10,0.7%,-5.2%,-23%,4
CC1CN(C(=S)SCC(=O)c2ccccc2)CC(C)O1 (configuration not stated),4.4,-0.7,7,3.0%,-1.0%,2%,34
CC1=CC(C)(C)Nc2ccc(OC(=O)C(Cc3ccccc3)N3C(=O)C4CCCCC4C3=O)cc21 (configuration not stated),4.9,0.5,-5,0.8%,32µM*,3%,38
NS(=O)(=O)c1ccc(CCNC(=O)c2ccc(Cl)cc2[N+](=O)[O-])cc1,0.3,-0.4,-10,0.4%,nt,1%,7
COc1cc(/C=C2/SC(=S)N(CCC(=O)Nc3cccnc3)C2=O)cc(OC)c1OC,nt,0.6,nt,9.1%,2.4%,nt,7
CCCc1nc2c(=O)n(C)c(=O)[nH]c2n1C,?,-0.4,-7,1.2%,-15%,-2%,22
N#Cc1cc(C(=O)c2ccccc2O)cn(-c2ccc(Cl)cc2)c1=O,?,2.1,1,-0.3%,nt,1%,32
CCc1ccccc1N(C)C(=O)Cn1cnc2sc(C)c(S(=O)(=O)N3CCC(C)CC3)c2c1=O,nt,0.0,nt,1.2%,-1.1%,nt,-3
Nc1nc(NCCOCCO)nc(NCC2CCCO2)c1[N+](=O)[O-] (configuration not stated),3.1,3.9,nt,2.8%,1.8%,30%,-2
Cc1ccc(C(=O)C(C)N2C(=O)NC(C)(c3ccccc3)C2=O)cc1 (configuration not stated),0.3,-0.2,1,1.7%,nt,8%,-2
# New compounds follow:
SMILES,Menin-MLL FL inh,TRPML1 ag,TRPV1 potentiator,PINK1 modulator,ClpP mod,Sfp PPTase inh,TRPML1 inh
CC(c1ccccc1)n1cc(C(=O)NCC2COc3ccccc3O2)nn1 (configuration not stated),1.1,7.0,-7,-2.3%,-1.5%,23%,13
O=C(NCCCn1ccnc1)/C(=C/c1ccco1)NC(=O)c1ccco1,2.2,-0.1,8,2.6%,nt,12%,8
CCn1cc2nc(SCc3cc(C)ccc3C)n(CCc3ccccc3)c(=O)c2n1,nt,0.1,nt,3.0%,-2.1%,nt,39
Cc1ccc(-c2nc3ccccc3o2)cc1NC(=O)COc1ccccc1C,nt,0.0,nt,1.5%,4.8%,nt,nt
Cc1ccc(NC2=CC(=O)CC(c3ccccc3)C2)cc1 (configuration not stated),3.8,0.1,-24,1.2%,0.4%,7%,5
COCCNC(=O)C1CCN(C(=O)C2CC(=O)N(c3ccc(C)cc3)C2)CC1 (configuration not stated),-0.8,-0.3,-1,-0.3%,nt,11%,-4
COc1ccc(NC(=O)C2CCCN(S(=O)(=O)c3cccc4nonc34)C2)cc1Cl (configuration not stated),nt,0.8,nt,7.8%,-0.6%,nt,1
COc1ccc(OC)c(Cc2cnc3nc(N)nc(N)c3c2C)c1,nt,0.7,nt,-6.0%,-6.7%,nt,2
CCN(C[C@H]1N[C@@](Cc2ccccc2)(C(=O)OC)[C@H]2C(=O)N(C)C(=O)[C@@H]12)C(=O)c1ccccc1,nt,-0.8,nt,0.6%,0.9%,nt,22
CC1CCCCN1C(=O)CCC(=O)Nc1nnc(C2CCCCC2)s1 (configuration not stated),nt,-0.5,-7,1.2%,-10%,4%,-4
COc1ccc(C(CNC(=O)CSc2ccc(Br)cc2)N2CCOCC2)cc1 (configuration not stated),nt,0.5,-17,-3.1%,nt,nt,-8
CC(C)(C)C1CCC(=NNc2nc3ccccc3[nH]2)CC1 (configuration not stated),-0.1,3.7,-9,8.7%,nt,-9%,5
CCOc1ccc(CN2CCNC(=O)C2CC(=O)OC)cc1 (configuration not stated),-1.4,-0.8,13,0.5%,1.4%,-2%,-1
NNC(=O)CNc1ccccc1Cl,-0.7,4.5,-6,-0.7%,nt,12%,-3
COc1ccccc1NC(=O)C1CCCN(c2ncnc3onc(-c4ccc(F)cc4)c23)C1 (configuration not stated),nt,0.0,nt,0.2%,0.7%,nt,17
COc1ccc(NC(=O)Cn2nnc(C(=O)Nc3ccc(F)c(Cl)c3)c2N)cc1,6.5,0.5,4,1.5%,-7.7%,7%,2
O=C(NC1CCCCC1)C(CCc1ccccc1)N1CCOCC1 (configuration not stated),nt,-0.6,nt,12%,1.8%,nt,nt
COc1ccccc1CNC(=O)Cn1cnc2ccccc2c1=O,5.2,3.1,-1,-1.5%,-1.0%,25%,6
CC(=O)c1ccc([N+](=O)[O-])c(CS(=O)(=O)c2ccc(Cl)cc2)c1,-15,2.4,18,3.3%,0.5%,?,21
COc1ccc(NC(=O)Cn2cnc3c(nc4n3CCCCC4)c2=O)cc1Cl,nt,-0.6,nt,2.4%,0.2%,nt,8
COc1cc2c(cc1OC)-c1cc(Nc3cccc(C)c3)nc(=O)n1CC2,-3.2,1.0,?,5.6%,nt,20%,-6
CCCCNC(=S)N1CCn2cccc2C1c1ccc(F)cc1 (configuration not stated),1.0,4.1,-7,20%,-0.1%,14%,33
O=C(NCC1(N2CCOCC2)CCCCC1)c1cccc(S(=O)(=O)Nc2ccc(F)cc2)c1,nt,0.7,7,0.8%,-2.7%,nt,-1
Cc1ccc(S(=O)(=O)Nc2ccc3[nH]c(=O)sc3c2)cc1C,nt,-0.6,nt,-0.5%,-1.1%,nt,-8
Cc1ccc(-c2nc3ccc(C)cn3c2Cc2cccc(Cl)c2)cc1,nt,0.1,nt,?,4.7%,nt,nt
# Next part.
SMILES,Menin-MLL FL inh,TRPML1 ag,TRPV1 potentiator,PINK1 modulator,ClpP mod,Sfp PPTase inh,TRPML1 inh
O=C(COC(=O)CCc1ccc(S(=O)(=O)N2CCOCC2)cc1)NCc1ccccc1Cl,3.6,-0.5,3,0.4%,1.4%,15%,0
CCOC(=O)C1(C)Oc2cccnc2NC1=O (configuration not stated),0.0,0.4,9,-0.2%,-25%,0%,-4
O=C(Nc1cc(S(=O)(=O)N2CCOCC2)ccc1N1CCOCC1)c1ccccc1Cl,nt,-0.1,nt,-0.3%,-11%,nt,-13
COc1ccc(-c2nc(-c3ccncc3)no2)cc1OC,0.9,-0.3,2,nt,-2.1%,-12%,-7
Nc1[nH]c(C(=O)c2ccccc2)c(-c2ccc(C(F)(F)F)cc2)c1C(=O)NCc1ccc(Cl)cc1Cl,nt,-0.1,nt,0.4%,-2.7%,nt,nt
Cc1c(CCNC(=O)C(C)(C)C)sc2nc(-c3ccc(F)cc3)nn12,nt,2.6,nt,-0.7%,-3.5%,nt,0
Nc1nc(=O)c2ccccc2s1,nt,-0.3,nt,1.8%,-3.4%,nt,-1
O=C(O)c1ccccc1Nc1ccnc(Cl)n1,0.6,-0.6,3,1.1%,?,24%,-3
CC1(C)CNC(=O)c2sc(N3CCOCC3)nc2C1,3.9,0.5,1,5.3%[38.3 µM],0.6%,5%,1
Cc1cc(C)nc(N/C=C(\C#N)C(=O)c2cccc(CSc3ccccc3)c2)n1,nt,-0.5,nt,0.9%,-10%,nt,nt
CC1=C(C(=O)OC2CCCCCC2)C(c2ccc(Cl)cc2Cl)CC(=O)N1 (configuration not stated),nt,0.0,nt,4.7%,-1.0%,nt,-1
COC(=O)C1=C(C(=O)OC)SC(=C2C(=S)C(C)(C)N(C(=O)C(C)C)c3ccccc32)S1,1.9,1.8,6,nt,13%,?,51
COc1ccccc1OCC(=O)NCCS(=O)(=O)N1CCN(c2ccccc2OC)CC1,nt,1.2,nt,-0.1%,0.6%,nt,-15
Cc1cc2c(c(SCC(=O)NCc3ccc(Cl)cc3)n1)C(=O)OC2,4.8,-0.3,8,0.8%,-1.8%,3%,-18
CC(C)NC(=O)CCn1c(SCc2c(F)cccc2Cl)nc2c(sc3ccccc32)c1=O,nt,0.1,nt,-0.6%,?,nt,4

# Some of the entries above in another layout.
mol | Menin-MLL FL inh | TRPML1 ag | TRPV1 potentiator | PINK1 modulator | ClpP mod | Sfp PPTase inh | TRPML1 inh
Cc1cc(C)nc(N/C=C(\C#N)C(=O)c2cccc(CSc3ccccc3)c2)n1 | nt | -0.5 | nt | 0.9% | -10% | nt | nt
CCOC(=O)C1(C)Oc2cccnc2NC1=O (configuration not stated) | 0.0 | 0.4 | 9 | -0.2% | -25% | 0% | -4

# Compound activity (PubChem BioAssay)
